# Compound activity (PubChem)
# AID504770 = growth inhibitors of E. coli YBA685 in a screen for V. cholerae RctB (chromosome II replication) inhibitors. 130,000 compounds, 0.27% hits. z-score (concentration not given with the values). E. coli YBA685 rctB-dependent plasmid, OD600 growth, 3 h; active compounds read low. AID 504770;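 active = z-score under -2 on both plates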;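 note: wells of about 30 µL received 100 nL stock; score is relative to mean and SD of the test wells; the first replicate is given; strong numbers were not always called active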
# Ba CapD inh = inhibitors of Bacillus anthracis CapD enzyme. z-score (concentration not given with the values). purified CapD enzyme, fluorescence intensity read-out; active compounds read low; some hits fall short of the stated cut. AID 492967. 140,000 compounds, 0.23% hits;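 active = z-score under -4 in either of two replicates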;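 note: stock transfer was 100 nL into about 40 µL; score is relative to mean and spread of the plate; one replicate is shown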
# Active calls of the source: *; nt = not tested or not shown.
SMILES,AID504770,Ba CapD inh
Cc1cc(=O)[nH]c(-n2cc(C(=O)c3cc(F)ccc3O)cn2)n1,0,nt
CC(C)CN1C(=O)c2cccnc2C1=O,-0.7,-0.13
CCN(CC)C(=S)Oc1c(C)c(C)nc(=S)n1CCCOC,2.5,-1.2
Oc1ccc2cc(Br)ccc2c1/C=N/n1cnnc1,-0.15,-0.065
CCN(CC)c1ncnc2c1sc1nc(N3CCOCC3)c3c(c12)CC(C)(C)OC3,nt,1.3
O=C(O)CSCC(=O)N1CCN(Cc2c(F)cccc2Cl)CC1,-0.4,0.38
O=C(NCc1ccc2c(c1)OCO2)C1CCN(S(=O)(=O)c2ccc(Br)s2)CC1,-0.6,0.56
Cc1nc(C)c(-c2nnco2)cc1C(=O)NN,-0.1,nt
CSC(=Nc1ccccc1)Nc1ccccc1,nt,-0.35
Cc1ccc(N(C(C)C(=O)O)S(=O)(=O)c2cccnc2)cc1 (centres undefined),-0.65,-1
O=C(/C=C/c1ccco1)Nc1cc(C(=O)O)cc(C(=O)O)c1,-0.15,nt
COc1ccc(N2CSCc3nc4ccccc4n3C2)cc1,nt,0.48
O=C(O)CCc1cccs1,0.1,0.54
COc1ccc(S(=O)(=O)N(Cc2cccc(Cl)c2)c2ccc3[nH]c(C(C)(C)C)cc3c2)cc1,nt,-0.24
CCOC(=O)[C@H](CCc1ccccc1)N[C@H](C)C(=O)N1C2CCCCC2C[C@H]1C(=O)O (some centres undefined),1.8,nt
c1ccc(OCCSc2nnc3sc4ccccc4n23)cc1,-0.1,-1.8
CCCCNC(=O)c1sc2ncnc(N3CCN(c4ccccc4)CC3)c2c1C,nt,-0.3
COC(=O)c1ccc(C(=O)OC)c(NC(=O)c2cc3cc(OC)ccc3oc2=O)c1,nt,-0.54
CCc1oc2ccccc2c1/C=N/O,-1.3,nt
Nc1c(Cl)cc(Cl)c2nsnc12,0.4,nt
COC(Cn1c(SCC(=O)c2ccccc2)nnc1-c1ccccc1)OC,-0.1,-0.55
O=[N+]([O-])c1ccc(O)c(-c2nc(-c3ccccc3)c(-c3ccc(-c4ccccc4)cc3)[nH]2)c1,nt,11
O=C(CSc1nc2[nH]ncc2c(=O)n1-c1ccccc1)Nc1cc(Sc2ccc(F)cc2)cc([N+](=O)[O-])c1,nt,-0.46
Nc1ccccc1/C=C1\C(=O)Nc2ccccc21,0.25,-1.5
COc1ccccc1-n1c(Cc2ccc(Cl)cc2)n[nH]c1=S,-0.75,-0.09
CNc1ccc2c(cc1=O)[C@@H](NC(C)=O)CCc1cc(OC)c(OC)c(OC)c1-2,1.4,-1.3
CN(C)C(=S)Nc1ccc(Cl)cc1,nt,0.75
COc1ccc(C2C3=C(CC(C)(C)CC3=O)Nc3[nH]c(=O)[nH]c(=O)c32)cc1OC (centres undefined),nt,-1.1
Nc1ccccc1SCc1ncc(C(F)(F)F)cc1Cl,-0.1,0.66
CC(C)(O)C(=O)N=Nc1c(O)[nH]c2ccccc12,2.2,nt
N/C(CS(=O)(=O)c1cccs1)=N\O,nt,-1.1
COc1ccc(-c2c(N)nc(-c3ccc(Cl)cc3)nc2SC)cc1,-0.8,37
O=C(NCC(=O)N1CCc2ccccc2C1)c1cccs1,-0.45,nt
COc1ccc(-c2cc(C(=O)Nc3ccccc3C(=O)O)c3ccccc3n2)cc1OC,nt,0.38
CC(C)C(=O)Nc1ccccc1C(=O)OCC(=O)c1ccc2c(c1)OCCO2,-0.05,nt
COc1cccc(/C=N\NC(=O)c2n[nH]c3c2CCC3)c1,0.05,nt
Cc1ccc(-c2nc3scc(CCNS(=O)(=O)N(C)C)n3n2)cc1,0.3,nt
Brc1cccc2c3c4n(c12)CC1COC4(CCC3)O1 (centres undefined),-0.85,0.77
COc1cc(/C=C2/SC(=S)N(C)C2=O)ccc1Oc1nc(N2CCOCC2)nc(N2CCOCC2)n1,nt,0.23
CS(=O)(=O)NCc1ccccc1Cl,-0.7,0.11
O=C(CSc1nnc(-c2ccco2)o1)c1ccc(Br)cc1,nt,-0.67
Cc1[nH]c2ccccc2c1C(=O)Cn1ccsc1=N,0.2,nt
Cc1onc(-c2ccccc2)c1CN1C(=O)c2ccccc2S1(=O)=O,-0.25,0.76
COc1ccc(C2CC(c3ccccc3)=NN2C(=O)c2ccc(F)cc2)cc1 (centres undefined),nt,0.3
Clc1ccc(-n2ncc3c(N4CCN(Cc5ccccc5)CC4)ncnc32)cc1,nt,0.43
COc1ccc(NC(=O)Oc2ccccc2)cc1,-0.8,-1.1
NC(=O)c1oc2ccccc2c1NC(=O)C12CC3CC(CC(C3)C1)C2,0.05,nt
CCOC(=O)c1c(NC(=O)CSc2nc(C)nc3sc4c(c23)CCC4)sc2c1CCC2,nt,-0.18
NC1CCC2CCCCC2C1 (centres undefined),-0.85,nt
CCC1Oc2ccccc2C(=O)NC1=O (centres undefined),nt,-0.03

# Two of the compounds above, as labelled records:
SMILES: Clc1ccc(-n2ncc3c(N4CCN(Cc5ccccc5)CC4)ncnc32)cc1
  AID504770: nt; Ba CapD inh: 0.43
SMILES: NC(=O)c1oc2ccccc2c1NC(=O)C12CC3CC(CC(C3)C1)C2
  AID504770: 0.05; Ba CapD inh: nt

# Next compounds follow.
SMILES,AID504770,Ba CapD inh
CC(Nc1ccc(C(F)(F)F)cc1[N+](=O)[O-])c1ccccc1 (centres undefined),nt,-1.3
CCOC(=O)Nc1ccc2c(c1)N(C(=O)CNC)c1ccccc1CC2,-0.05,0.21
CCN(CC)C(=S)Oc1ccc(I)cc1,-0.6,0.44
CC(C)(C)NC(=O)CCC1COc2ccccc2O1 (centres undefined),0.95,0.57
Fc1ccc(N=Cc2ccncc2)cc1F,-0.8,-0.71
CCCCn1c(CNC(=O)COc2ccccc2)nnc1SC(C)C(=O)Nc1sc2c(c1C(=O)OCC)CCCCC2 (centres undefined),nt,-0.74
CCN1CCN(CCCNC(=O)c2cc3cc4ccc(Cl)cc4nc3o2)CC1,-2.3*,0.46
CC/C(C)=N/Nc1ccc(S(=O)(=O)N(CC)CC)cn1,-1.6,nt
O=C(CN(c1ccccc1)S(=O)(=O)c1ccccc1)Oc1ccc(F)cc1,nt,-0.33
Cc1noc2ncnc(N3CCC(C(N)=O)CC3)c12,-0.95,-0.4
CCc1noc2c1/C(=N\O)CC(c1ccccc1)C2 (centres undefined),0.2,-0.12
O=C(/C=C/c1ccco1)Nc1ccc(Oc2ccccc2)cc1,0.4,-2.4
CC(=O)Nc1ccc2c(CSc3nnc(-c4ccco4)n3C)cc(=O)oc2c1,-0.2,nt
CCc1ccccc1NC(=O)CSc1nnc(C)n1CC,-0.35,-0.36
CC(C)(C)NC(=O)c1ccccc1NC(=O)Nc1ccccc1,0.1,0.82
c1ccc(CSCc2nc3ccccc3[nH]2)cc1,0.05,-0.28
O=C(/C=C/c1ccc(Br)o1)OCC(=O)N1CCc2ccccc21,-0.2,0.02
O=C(NC(Sc1ncccn1)C(=O)c1ccccc1)c1ccccc1 (centres undefined),-0.05,-0.14
COc1cccc(Nc2cc(N3CCCCCC3)c3nonc3c2[N+](=O)[O-])c1,nt,0.18
CCc1cc2c(cc(C(=O)OC)n2Cc2ccc(Br)cc2F)s1,-1.6,-0.32
CCN(CC)/C(N)=N/c1nc(C)cc(C)n1,-0.25,nt
Cc1ccc(S(=O)(=O)N(CCc2ccccc2)CC(=O)Nc2ccc(C(C)C)cc2)cc1,0.4,74
Cc1ccc(C)c(N2CCN(CCCNC(=O)Nc3cn(CC(C)C)c(=O)c4ccccc34)CC2)c1,-0.25,1.6
CCn1c(SCCC#N)nc2cc(S(=O)(=O)N3CCCCC3)ccc21,-0.25,nt
O=C(CSc1nnc(-c2c[nH]c3ccccc23)o1)NC(=O)Nc1ccccc1F,-0.65,nt
O=C(O)CSc1nccn1-c1ccc(Br)cc1,-1.1,nt
COc1ccc(COC(=O)NCCc2c[nH]c3ccc(Cl)cc23)cc1OC,nt,0.71
CCCS(=O)(=O)c1c(S(=O)(=O)CCC)c2ccccn2c1C(=O)N/N=C/c1cccc(F)c1,nt,-0.27
O=C(Nc1nc2ccc(Cl)cc2s1)c1ccco1,1.2,2.6
C=CCNC(=O)N1CC(Oc2ccc(Cl)cc2)C1,-0.4,1.2
COc1ccc(-c2cc(C(F)(F)F)n3nc(C(=O)NCC4CCCO4)c(Cl)c3n2)cc1OC (centres undefined),nt,0.18
Cc1cc(=O)oc2c(CN3CCCCC3)c(O)ccc12,-0.35,-0.66
CNc1cc(CSC)nc(SCc2ccc(Cl)c(Cl)c2)n1,nt,0.38
Cc1ccc2[nH]c(=O)c(CN(C(=O)c3cccs3)C3CCCCC3)cc2c1,0.45,19
CC(NS(C)(=O)=O)C(c1cccs1)N1CCN(Cc2ccccc2)CC1 (centres undefined),0.4,nt
COc1ccc(/C=C2\N=C(c3cc([N+](=O)[O-])ccc3Cl)OC2=O)cc1OC(C)=O,nt,-0.21
NCC(c1ccccc1)N1CCCC1 (centres undefined),0.35,nt
COc1cc[n+](OC(=O)N2CCCCC2)c(C)c1,0.1,-0.18
CC(=O)Nc1ccc(N=Cc2c(C)[nH]n(-c3ccc(C)cc3)c2=O)cc1,nt,-0.89
COC(=O)C1C(=O)NC(SCC(=O)Nc2ccc(F)cc2)=C(C#N)C1c1ccccc1F (centres undefined),nt,-0.66
Clc1ccc(/C=C/c2nc3ccccc3n2Cc2ccccc2)c(Cl)c1,nt,51
Clc1ccc(C2CC(C3CC3)=NN2c2ccccc2)cc1 (centres undefined),0.1,0.16
Cc1nn(-c2ccccc2)c(N)c1N=Nc1ccc(S(=O)(=O)N2CCOCC2)cc1,0.15,nt
O=c1c(Br)c(N2CCc3ccccc3C2)cnn1-c1ccccc1,0.05,nt
O=C(NC1CCCCC1)c1ccccc1NS(=O)(=O)c1ccc(F)c(F)c1,0.25,0.4
C/C(=C\C(=O)Nc1ccc(Cl)cc1)N1CCN(Cc2ccccc2)CC1,-0.7,nt
O=c1c2c(-c3ccccc3)csc2nc2n1CCCCC2,-0.45,nt
O=c1oc(-c2ccccc2F)nc2sc3c(c12)CCCC3,nt,-0.09
Cc1c(C(=O)NCc2ccccn2)sc2ncnc(N3CCN(c4ccccc4)CC3)c12,nt,-0.57
Cc1nc2cc(NS(=O)(=O)c3ccccc3)ccc2n1-c1ccccc1,-0.55,nt

# (continued)
SMILES,AID504770,Ba CapD inh
O=C(NCCN1CCOCC1)c1nc(-c2ccccc2)oc1C(F)(F)F,nt,0.6
Cc1nn(-c2ccc(Cl)cc2)c2sc(C(=O)NC3CCC(O)CC3)cc12 (centres undefined),2.1,-0.89
Cc1nn(C)c(C)c1CNC(=O)NC1CCCC1,1.1,0.21
CC1(C)CC(=O)C2=C(C1)N(c1ccccc1F)C1=C(C(=O)c3ccccc31)C2c1ccccc1 (centres undefined),nt,-0.17
O=C(Cc1coc2cc3c(cc12)CCC3)N1CCc2ccccc21,1.4,nt
O=C(COc1ccc2c(c1)OCO2)c1ccc(F)cc1,-0.15,nt
Cc1cc(C)nc(OC(Cc2cnccn2)c2cccc(C(F)(F)F)c2)n1 (centres undefined),nt,-0.67
CC1(c2ccc(OC(F)F)cc2)NC(=O)N(/N=C/c2ccncc2)C1=O (centres undefined),-1.5,nt
O=C(O)CCC(=O)N1CCc2nc3ncccc3cc2C1,nt,0.16
Cc1ccc(OC(=O)c2cccs2)c(Br)c1,nt,0.3
CCOC(=O)c1cn(CC)c2cc(N3CCCC3)c(F)cc2c1=O,0,1.2
Cc1ccc2c(c1)c(C)c(C)n2CC(O)CN1CCCCC1 (centres undefined),-0.4,-0.4
CCCCNS(=O)(=O)c1ccc2c(c1)nc(SCC(=O)N1CCCC1)n2CCCC,-0.25,nt
CCS(=O)(=O)N1CC=C(c2c(C)n(CC(=O)N3CCCC3)c3ccccc23)CC1,-1.1,0.35
CC(C)(C)c1cc(-c2nccs2)ccc1/C=N/O,nt,56
CCOc1cccc(C2C(C(=O)OCCOC)=C(C)NC3=C2C(=O)CC(c2ccc(OC)c(OC)c2)C3)c1 (centres undefined),nt,6.1
Cc1nc2sc(C(=O)OCC(=O)c3cc(C)n(C)c3C)c(C)c2c(=O)[nH]1,1.5,nt
CCC(C(=O)NCc1ccc2c(c1)cc(C)n2C)c1ccccc1 (centres undefined),1.6,-1.4
COC(=O)c1cccc(N2COc3ccc4c(C)cc(=O)oc4c3C2)c1,nt,35
Cc1ncc([N+](=O)[O-])n1CC(O)CCl (centres undefined),nt,1.6

# Compounds above that have a cyano group (2):
SMILES,AID504770,Ba CapD inh
CCn1c(SCCC#N)nc2cc(S(=O)(=O)N3CCCCC3)ccc21,-0.25,nt
COC(=O)C1C(=O)NC(SCC(=O)Nc2ccc(F)cc2)=C(C#N)C1c1ccccc1F (centres undefined),nt,-0.66

# Other structures:
SMILES,AID504770,Ba CapD inh
O=C(Nc1nnc(SCC(=O)N2CCc3ccccc32)s1)C1CCCCC1,-0.55,0.71
Cn1cc(Cl)c(/C=N/O)n1,0.6,0.48
Cc1ccc(C23CC4CC(CC(C(=O)NC5=NCCS5)(C4)C2)C3)cc1,0.1,-0.3
CCn1c(=O)n(CC(=O)Nc2ccc(F)cc2Cl)c(=O)c2ccccc21,nt,1.8
O=c1cc(-c2ccccc2)nc2nc(C(F)(F)F)[nH]n12,-0.6,-0.18
CCOc1ccc(C2=NN3C(C2)c2cccc(OCC)c2OC3c2ccccc2Cl)cc1 (centres undefined),nt,0.36
CCN(CC)S(=O)(=O)c1ccc(C(=O)NCCc2c[nH]c3ccccc23)cc1,0.75,0.16

# Record cards, from the list above. Screens in order: AID504770	Ba CapD inh
# Cn1cc(Cl)c(/C=N/O)n1 as listed: 0.6	0.48
# Cc1ccc(C23CC4CC(CC(C(=O)NC5=NCCS5)(C4)C2)C3)cc1 as listed: 0.1	-0.3
# CCN(CC)S(=O)(=O)c1ccc(C(=O)NCCc2c[nH]c3ccccc23)cc1 as listed: 0.75	0.16
# CCOc1ccc(C2=NN3C(C2)c2cccc(OCC)c2OC3c2ccccc2Cl)cc1 (centres undefined) as listed: nt	0.36
# O=c1cc(-c2ccccc2)nc2nc(C(F)(F)F)[nH]n12 as listed: -0.6	-0.18

# The list is partial; the hit share may differ from the screen's.
